HCMV NEC inh: disrupts HCMV UL50-UL53 complex binding. inhibition, % (concentration not given with the values). hit rate 0.15% among 190,000. HTRF UL50-UL53 interaction, normalized percent inhibition;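 active = both replicates at 50% or more, plus weaker picks with an unusually low signal ratio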;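 also: stock transfer was 100 nL into about 20 µL; 0% = negative control wells and 100% = wells with untagged competitor protein; inactives centre near -12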
GIV-Gai inh: inhibitors of GIV GBA-motif binding to rat Galpha-i3. P08753. Galpha-i3/FITC-GIV peptide fluorescence polarization, 90 min; stronger effect = lower value; scaled: aluminum fluoride 0%, vehicle 100%. percent of control (FP), % (no concentration beside the values). hit rate 0.42% among 210,000;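 active = replicate mean at 85% of control or lower, very high polarization wells dropped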;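 also: wells of about 15 µL received 100 nL stock; the first replicate is given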
Target sequence (P08753 whole entry, looked up): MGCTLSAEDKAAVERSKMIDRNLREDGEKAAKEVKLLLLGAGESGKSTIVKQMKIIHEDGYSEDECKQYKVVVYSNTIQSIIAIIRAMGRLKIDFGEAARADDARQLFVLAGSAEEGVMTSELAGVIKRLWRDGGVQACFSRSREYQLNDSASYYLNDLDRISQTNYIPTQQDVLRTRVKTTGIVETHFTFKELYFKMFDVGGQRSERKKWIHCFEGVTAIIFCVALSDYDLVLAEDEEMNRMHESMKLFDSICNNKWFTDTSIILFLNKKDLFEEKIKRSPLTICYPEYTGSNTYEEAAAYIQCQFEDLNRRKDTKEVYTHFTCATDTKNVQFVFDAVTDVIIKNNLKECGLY
Sa growth 42C: S. aureus growth inhibition | S. aureus RN4220 growth, OD600, 20 h, 42 °C; stronger effect = lower value | relative growth, % (test concentration not listed) | AID 720641 | hit rate 0.53% among 170,000;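 active = growth at 42 °C up to 50% and 20 or more points under that at 30 °C, or under 10% at both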;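 also: 300 nL library stock went into each well; scaled to the means of positive and negative controls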
Sa growth 42C second temp: recorded beside Sa growth 42C, whose call it bears; relative growth, %; measured here: growth at 30 °C;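 optical density after 20 h as mean of two plates; 100% = untreated growth and lower means inhibition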
The depositor's hits bear a star; . = not tested or not shown; & = joins results of further samples. Compounds as they come, and some 0.8% of all compounds hit somewhere here.

SMILES	HCMV NEC inh	GIV-Gai inh	Sa growth 42C	Sa growth 42C second temp
CC1CN(CC(=O)C(C#N)c2ccccc2)CC(C)O1 (stereo not drawn)	-31	109	126	91
COc1ccc2nc(NC(=O)C3CCN(S(=O)(=O)c4cn(C)c(C)n4)CC3)sc2c1	-4	102	.	.
O=C(c1cnc(N2CCCCC2)c2ccccc12)N1CCN(c2cccc(Cl)c2)CC1	.	108	84	74
Cc1ccc(NC(=O)NC(=O)Cn2ccsc2=N)c(C)c1	-12	.	95	81
Cc1ccc(CSc2ccc3nnc(CCNS(=O)(=O)c4ccc(C)cc4)n3n2)cc1	.	104	115	80
Cc1c(-c2nnc(C(=O)NCc3ccccc3Cl)o2)oc2ccccc12	-1	102	.	.
CNC(=O)/C(=C\c1ccc(Cl)cc1)NC(=O)c1ccco1	13	105	89	110
Cc1ccc(-n2ccnc(NCCc3ccc(S(N)(=O)=O)cc3)c2=O)c(C)c1	.	98	94	86
Oc1cccc(-c2nc3cnccn3c2Nc2ccccc2)c1	-29&-7	100&97	108	63
CC1CCN(CC2CCN(C(=O)NCc3ccc(F)cc3)CC2)CC1	.	101	114	85
COC(=O)c1ccc(N=C2SC(C(=O)Nc3ccc(C)c(Cl)c3)CC(=O)N2C)cc1 (stereo not drawn)	-26	100	.	.
Cc1ccc(S(=O)(=O)Nc2cc(-c3ccccc3)nn2C)cc1Cl	-7	102	100	71
CC(C)(C)n1cnc2cc(NCc3ccccn3)ccc21	.	101	104	90
COc1ccc(N2C(=O)CSC2c2ccc(Br)cc2)cc1Cl (stereo not drawn)	-5	101	.	.
CCCCc1nn2c(=O)cc(COC(=O)CNC(=O)COc3ccc(C)cc3)nc2s1	.	101	83	89

The final three compounds of the section before lead into the next.
SMILES	HCMV NEC inh	GIV-Gai inh	Sa growth 42C	Sa growth 42C second temp
CC(C)(C)n1cnc2cc(NCc3ccccn3)ccc21	.	101	104	90
COc1ccc(N2C(=O)CSC2c2ccc(Br)cc2)cc1Cl (stereo not drawn)	-5	101	.	.
CCCCc1nn2c(=O)cc(COC(=O)CNC(=O)COc3ccc(C)cc3)nc2s1	.	101	83	89
COc1ccc(C(=O)Nc2ccccc2)cc1S(=O)(=O)Nc1ccc(Br)cc1	-48	102	94	95
CN(C)S(=O)(=O)N1CCn2cccc2C1c1ccccc1 (stereo not drawn)	-27	104	99	93
CCOC(=O)c1c(C)[nH]c(C(=O)CSc2nc3ccccc3o2)c1C	-21	.	68	98
O=C(NCc1cccnc1)c1ccc(COc2ccc3c(c2)CCC3)o1	-9	98	95	78
COc1ccc(NC(=O)CNC(=O)Cn2c(C)cc3ccccc3c2=O)c(OC)c1	-37	97	130	90
O=C(COc1ccccc1)OCCN1CCCC1=O	-19	.	113	85
O=C(CSc1nc2nc[nH]c2c(=O)[nH]1)N1c2ccccc2Sc2ccccc21	-1	110	.	.
CCOc1cc2sc(N3CCC(C(=O)Nc4ccc(C)cc4C)CC3)nc2cc1Br	-16	101	103	98
Nc1nc(NCc2cccs2)nn1-c1ccccc1	0	98	100	90
Cc1cc(C)cc(NC(=O)c2ccc3c(c2)NC(=O)c2ccccc2S3)c1	.	104	96	77
COc1ccc(C(=O)c2coc3ccc(O)c(CN4CCCC4)c23)cc1	-13	.	96	84
CN1/C(=C2/SC(=S)N(N)C2=O)Sc2ccccc21	-23	102	100	103
Cc1ccc(S(=O)(=O)NC(Cc2ccccc2)C(=O)NN)cc1 (stereo not drawn)	3	91	99	114
CC1CCC/C(=C/Nc2ccc3c(c2)OCO3)C1=O (stereo not drawn)	.	111	131	63
Cn1c(C2CC(=O)N(CCc3ccccc3)C2)nc2ccccc21 (stereo not drawn)	.	107	85	74
O=C(Oc1ccccc1)C(c1ccccc1)c1ccccc1	.	107	102	98
CC1CCCC(C)N1C(=O)CSc1nc2ccccc2s1 (stereo not drawn)	4	.	115	98
CCc1ccc(S(=O)(=O)NCC(O)c2ccccc2)cc1 (stereo not drawn)	-9	98	111	102
CC1(C)C2CCC1(C)C(OC(=O)CSc1ncn[nH]1)C2 (stereo not drawn)	-21	102	99	100
CCOC(=O)c1cccc(NC(=O)C(C)n2nc(C)c3c(C)n(-c4ccccc4)nc3c2=O)c1 (stereo not drawn)	.	100	103	90
CCOc1ccc(/C=C2\N=C(c3cc([N+](=O)[O-])ccc3Cl)OC2=O)c(OC(C)=O)c1	-6	108	.	.
Cc1c(NC(=O)c2ccc(C(C)(C)C)cc2)c(-n2cnnc2)nn1C	-5	103	.	.
O=S(=O)(Nc1cccc(-c2ccc(N3CCCC3)nn2)c1)c1cc(F)ccc1F	.	104	111	93
CC(C)CCn1c(CN2CCCCC2)nc2ccccc21	-15	100	.	.
COC(CNC(=O)c1ccc2c(c1)C(=O)N(CCc1ccccc1)C2=O)OC	-59	.	90	91
CC(C)Cc1cc(C(=O)Nc2cc(Br)ccc2O)no1	-8	98	83	87
COc1cccc(CNc2nc3ccccc3c3nc(-c4cccc(C)c4)nn23)c1	-18	101	99	78
CCOC(=O)c1ccc(S(=O)(=O)NNS(=O)(=O)c2ccc(C)cc2)cc1	-2	.	103	92
Nc1ccc(N2CCCCC2)cc1	-22	.	88	88
CCc1ccc(NC(=O)CSc2nc3c(c(=O)[nH]2)CN(Cc2ccc4c(c2)OCO4)CC3)cc1	-26	97	93	77

Individual results from the results shown.
O=C(NCc1cccnc1)c1ccc(COc2ccc3c(c2)CCC3)o1 in Sa growth 42C is listed with 95
CC(C)CCn1c(CN2CCCCC2)nc2ccccc21 in HCMV NEC inh is listed with -15
Cc1ccc(-n2ccnc(NCCc3ccc(S(N)(=O)=O)cc3)c2=O)c(C)c1 in GIV-Gai inh is listed with 98
O=C(Oc1ccccc1)C(c1ccccc1)c1ccccc1 in GIV-Gai inh is listed with 107
Cc1ccc(S(=O)(=O)Nc2cc(-c3ccccc3)nn2C)cc1Cl in Sa growth 42C is listed with 100

An excerpt from above in order of the GIV-Gai inh value, rising.
smiles	GIV-Gai inh
Cc1ccc(S(=O)(=O)NC(Cc2ccccc2)C(=O)NN)cc1 (stereo not drawn)	91
Nc1nc(NCc2cccs2)nn1-c1ccccc1	98
CC(C)CCn1c(CN2CCCCC2)nc2ccccc21	100
Cc1ccc(S(=O)(=O)Nc2cc(-c3ccccc3)nn2C)cc1Cl	102
Cc1c(NC(=O)c2ccc(C(C)(C)C)cc2)c(-n2cnnc2)nn1C	103
Cc1cc(C)cc(NC(=O)c2ccc3c(c2)NC(=O)c2ccccc2S3)c1	104
CC1CCC/C(=C/Nc2ccc3c(c2)OCO3)C1=O (stereo not drawn)	111

More records.
SMILES	HCMV NEC inh	GIV-Gai inh	Sa growth 42C	Sa growth 42C second temp
COc1ccc(-c2cc(C(=O)Nc3cc(Cl)ccc3OC)c3ccccc3n2)cc1	.	100	102	87
COc1cccc(Nc2ncc3c(n2)CCN(Cc2ccc(Cl)c(F)c2)C3)c1	-9	104	.	.
Cc1cn2c(=O)c(C(=O)NCCCN3CCN(CCCNC(=O)c4cnc5sc(C)cn5c4=O)CC3)cnc2s1	-19	96	94	83
C=CCn1c(-c2ccncc2)nn(CN2CCCC(C(=O)OCC)C2)c1=S (stereo not drawn)	-50	.	94	93
COCCNc1nc2c(c(=O)n(Cc3cccc(Cl)c3)c(=O)n2C)n1C	-22	104	105	87
COc1ccc(N/C=C/C(=O)c2ccc3c(c2)OCO3)cc1OC	.	115	106	92
O=C(c1nn2c(C(F)(F)F)cc(-c3ccc(Cl)cc3)nc2c1Cl)N1CCOCC1	-41	103	.	.
CCOc1ccc(C(=O)O)o1	-7	104	114	107
Cc1ccc2ncc3c(-c4ccccc4)nn(CC(=O)NC4CCCCC4)c3c2c1	.	102	78	93
COc1ccc(N2CCN(c3ncnc4sc(C(=O)NCCN5CCOCC5)c(C)c34)CC2)cc1	-15	109	.	.
Cc1nc2cc(C(=O)NCCc3ccc(Cl)cc3)ccc2n(Cc2ccccc2)c1=O	-26	107	.	.
O=C(COc1ccc(Cl)cc1)Nc1ccnn1C1CCCC1	-12	103	.	.
CC1CC2c3cccc(C(=O)O)c3C(=O)N2Cc2ccccc21 (stereo not drawn)	-12	98	99	84
CCOc1cccc(OCCCn2c(-c3ccc(Br)cc3)nc3ccccc3c2=O)c1	-46	100	104	92
Cc1nc2c3ccccc3nc(NNC(=O)CCC(=O)N3CCN(c4cccc(Cl)c4)CC3)n2n1	26	106	84	53
Cc1cc(C)cc(-n2cnc3cc(C(=O)NC4CCCCCC4)ccc32)c1	.	101	115	83
CN1C(=O)Cc2cc(S(=O)(=O)N(C)CCc3noc(-c4ccccc4F)n3)ccc21	2	96	.	.
O=C(NCc1ccccc1)C(Cc1ccccc1)NS(=O)(=O)c1cccc2nsnc12 (stereo not drawn)	.	103	94	81
COc1ccc(NC(=O)N2c3ccccc3Sc3ccccc32)cc1	.	100	105	91
COc1ccc(C2=C(C)C(=O)N(Cc3ccc(C(=O)NC(C)c4ccccc4)cc3)S2(=O)=O)cc1 (stereo not drawn)	.	104	102	92
Cc1[nH]c(C)c(S(=O)(=O)N2CCC(C(=O)Nc3ccc4c(c3)OCCO4)CC2)c1C(=O)N1CCCC1	-23	104	.	.
CCc1cccc(NC(=O)Cn2nc3c4cc(F)ccc4n(Cc4cccc(C)c4)cc-3c2=O)c1	.	100	97	93
Cc1cccc(NC(c2ccsc2)c2c(NC(=O)c3ccccc3)sc(C)c2C)n1 (stereo not drawn)	-15	98	.	.
COc1ccccc1CNC(=O)C1c2c(C)nn(-c3ccccc3)c2SCC(=O)N1c1ccc(C(C)C)cc1 (stereo not drawn)	-11	107	.	.
COc1ccc(-c2csc(NC(=O)C3CCCCC3)n2)cc1	-29	.	121	61
COc1cc(/C=N/OCC(=O)N2C(C)CCCC2C)ccc1OC(F)F (stereo not drawn)	12	.	103	94
O=C(NC1CCN(c2ncccn2)CC1)c1c(F)cccc1F	-8	97	111	94
C=CCOc1nc(N2CCCC2)nc(N2CCCC2)n1	-9	108	79	87
O=C(NCc1ccccc1Cl)c1ccc(CSCc2cccc(F)c2)o1	.	102	83	77
Cc1ccc(NC(=O)CSc2nnc(C)c(=O)[nH]2)cc1	7	100	106	95
CSC(N)=Nc1cc(C)c(C)cc1C	-1	100	94	92
CC1CN(C)C(C)CC1OC(=O)c1ccco1 (stereo not drawn)	-3	93	92	89
CCN1CCN(S(=O)(=O)c2ccc(-c3cc(C(F)(F)F)on3)o2)CC1	-15	102	.	.
COc1ccccc1OCCNC(=O)c1ccc(-n2cnnc2)cc1Cl	-27	102	100	95
CCOC(=O)c1cc(-c2ccccc2)n(CCCC(=O)Nc2ccc(C(C)C)cc2)c1C	.	110	104	83
CCC(=O)Nc1nnc(CC(=O)N/N=C/c2ccc(O)cc2)s1	-58	213	102	98
COc1ccc(CCNC(=O)c2cc(=O)c3ccc(C)cc3o2)cc1OC	-15	106	95	91
CN(C)S(=O)(=O)c1ccc(NCc2c(C#N)oc3ccc(Br)cc23)cc1	-18	.	101	93
COc1ccc(-c2sc(/N=C/c3cccs3)c(C#N)c2C)cc1OC	-22	95	94	88
Cn1c(=O)c2c(nc(SCC(=O)Nc3ccc4c(c3)OCO4)n2Cc2ccccc2)n(C)c1=O	-19	99	.	.
COc1cc(C#N)ccc1OCC(=O)Nc1cccc2nsnc12	-36	.	80	91
COc1ccc(N(Cc2nc(N)nc(N)n2)S(=O)(=O)c2cc(C)ccc2C)cc1	-28	.	83	91
O=C(NC1CCCCC1)C1CCCN1C(=O)Oc1ccccc1 (stereo not drawn)	-2	.	99	101
O=C(O)c1ccccc1C(=O)NCc1ccccc1	-31	95	101	87
Nc1c(NC2CCN(Cc3ccccc3)CC2)c2ccccc2oc1=O	.	103	107	87
Cc1c(Cl)cccc1NC(=O)C1CC(=O)N(C(C)C)C1 (stereo not drawn)	0	106	108	87
O=C(Nc1ccccc1)N1CCc2c([nH]c3ccccc23)C1c1cccnc1 (stereo not drawn)	-39	102	.	.
Cn1c(=O)oc2cc(S(=O)(=O)N3CCCC(C(=O)NCc4ccccc4Cl)C3)ccc21 (stereo not drawn)	-29	104	110	90
COc1ccc(-c2cc3ccc(O)c(CN4CCN(C)CC4)c3oc2=O)cc1OC	.	119	74	92
Cc1ccc(CNC(=O)CN2CCN(Cc3ccc(F)cc3Cl)C2=O)cc1	-9	106	117	89
O=C(c1ccc(C#Cc2ccccc2)o1)N1CCOCC1	-8	105	100	87
O=C(COc1ccc(F)cc1)Nc1ccc2c(c1)OCCO2	6	104	98	100
COc1ccc(C(=O)NCc2nc(-c3cccc(C)c3)no2)cc1OC	2	115	111	86
CCSC1=N/C(=C\c2ccc(-c3cccc(Cl)c3)o2)C(=O)S1	-10	299	117	84
CCOc1ccc(CCNC(=O)Cn2ccc3cc(S(=O)(=O)N4CCCCC4)ccc32)cc1	.	109	134	91
O=C(Nc1ccccc1Oc1ccccc1)c1cccs1	-25	100	85	82
O=C(Nc1cccc(F)c1)c1ccc2c(c1)N(Cc1ccccc1)C(=O)c1ccccc1S2(=O)=O	0	104	101	90
c1coc(-c2nc(-c3ccco3)c(-c3ccco3)nc2-c2ccco2)c1	-19	.	87	70
CN(Cc1ccccc1)C(=O)CSc1nnc(-c2ccccc2F)n1N	-6	.	96	94
CN(C)C(=O)CSc1nnc2c(Cl)cc(Cl)cn12	-66	.	97	97
CC1(C)CC(=O)C(C=NC2CCCC2)=C(O)C1	.	97	78	83
COc1ccc2ncc(S(=O)(=O)c3ccc(C)c(C)c3)c(N3CCN(C)CC3)c2c1	-48	105	96	73
